Env fusion inh – inhibitors of HIV-1 Env-driven cell-cell fusion, primary screen, HeLa-JRFL effector, CEM21 target cells, luciferase. 360,000 tested, 1.1% active. inhibition, % at 12.3 µM;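 active means mean replicate inhibition score of at least 50 and every replicate individually at or above 50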;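 further: 0% = plate neutral controls and 100% = maraviroc near 300 nM; one replicate is shown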
PABP polyA inh – PABP poly(A) RNA binding inhibitors, primary screen, biochemical, fluorescence polarization, uHTS. inhibition, % at 35 µM. 290,000 tested, 1% active. AID 2014, 2009;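 active means 50% or more with normal probe brightness, or confirmed in later tests; about a fifth of its hits are not listed in these tables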;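 further: calls also rest on retests at 20 µM and on dose response follow-up; controls were probe without protein and protein plus probe with vehicle; some compounds called inactive have numbers as strong as hits; many hits fall short of the cut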
Target sequence (P11940 whole entry, looked up): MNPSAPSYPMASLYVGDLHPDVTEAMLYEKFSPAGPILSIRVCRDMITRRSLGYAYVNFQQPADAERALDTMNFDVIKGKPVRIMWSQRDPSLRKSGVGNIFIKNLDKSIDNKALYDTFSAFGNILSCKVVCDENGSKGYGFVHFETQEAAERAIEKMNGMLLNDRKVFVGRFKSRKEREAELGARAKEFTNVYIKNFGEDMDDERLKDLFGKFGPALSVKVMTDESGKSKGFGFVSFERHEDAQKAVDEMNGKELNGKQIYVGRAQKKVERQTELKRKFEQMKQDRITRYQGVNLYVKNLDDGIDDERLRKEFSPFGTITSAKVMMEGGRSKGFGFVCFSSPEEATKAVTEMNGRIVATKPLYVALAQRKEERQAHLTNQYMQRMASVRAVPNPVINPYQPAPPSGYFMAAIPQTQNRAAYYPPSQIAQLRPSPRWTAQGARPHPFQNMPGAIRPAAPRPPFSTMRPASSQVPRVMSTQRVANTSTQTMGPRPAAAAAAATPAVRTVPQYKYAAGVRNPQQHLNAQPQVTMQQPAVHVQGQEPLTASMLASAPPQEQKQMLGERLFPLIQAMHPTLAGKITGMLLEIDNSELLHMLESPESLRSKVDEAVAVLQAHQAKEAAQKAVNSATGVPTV
eIF4H FP inh – human eIF4H binding inhibitors, primary screen, translation initiation inhibitor project, biochemical, uHTS, fluorescence polarization; Eukaryotic translation initiation factor 4H (Homo sapiens), Q15056; eIF4H fluorescence polarization binding assay; inhibition, % at 35 µM; 290,000 tested, 0.94% active; AID 2012, 2009;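 active means 50% or more with normal probe brightness, or confirmed in later tests; about a fifth of its hits are not listed in these tables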;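 further: calls also rest on retests at 20 µM and on dose response follow-up; 0% = protein and probe with vehicle and 100% = probe without protein; strong numbers were not always called active; many hits fall short of the cut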
CSC inhib – cancer stem cell viability inhibitors, primary screen, luminescence | inhibition, % at 7.5 µM | cancer stem cell-like cells viability | 300,000 tested, 1.1% active | AID 2717, 2010;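 active means mean at 75% or more and at least half the replicates too; tested in HMLE shEcad cells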;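 further: 0% = median of negative and 100% = median of positive control wells; the first replicate is given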
Yeast UUG start – modulators of yeast start codon fidelity, primary screen, whole organism, S. cerevisiae, single point, plate reader. AID 602363, 2012. activity score, % at 18.7 µM. S. cerevisiae UUG-firefly luciferase reporter, luminescence/redox ratio. 350,000 tested, 0.13% active;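 active means replicate mean at a twofold rise or more, about +100% in these data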;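 further: firefly luciferase made from a UUG start codon reports start codon fidelity; reporter light over untreated wells divided by growth signal over untreated wells; some hits fall short of that in this replicate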
Rce1 inhib – yeast Rce1p protease inhibitors, primary screen, biochemical, fluorescence, cell-free homogeneous. CAAX prenyl protease 2 (Saccharomyces cerevisiae (strain ATCC 204508 / S288c)), Q03530. yeast membranes, quenched prenylated peptide cleavage fluorescence. calls only. 290,000 tested, 0.27% active. AID 2563, 2010;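 active means fall in fluorescence gain of 50% or more versus controls, with final raw signal at or below 3038400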;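 further: plate controls were neutral control wells for no effect and wells lacking membranes for full effect; tested at 10 µM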
Target sequence (Q03530 whole entry, looked up): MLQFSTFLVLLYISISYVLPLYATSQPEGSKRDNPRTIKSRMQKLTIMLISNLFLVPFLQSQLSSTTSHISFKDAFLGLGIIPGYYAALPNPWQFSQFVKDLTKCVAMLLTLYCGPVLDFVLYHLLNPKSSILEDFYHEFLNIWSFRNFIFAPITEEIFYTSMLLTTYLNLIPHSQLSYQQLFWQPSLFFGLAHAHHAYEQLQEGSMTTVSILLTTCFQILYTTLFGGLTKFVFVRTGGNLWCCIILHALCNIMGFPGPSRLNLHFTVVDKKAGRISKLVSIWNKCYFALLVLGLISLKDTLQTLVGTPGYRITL
MT1-MMP act inh – blockers of MT1-MMP proenzyme processing, primary screen, HT1080 RFP-PRO-GFP cells, GFP/RFP fluorescence; Matrix metalloproteinase-14 (Homo sapiens), P50281; GFP/RFP ratio fluorescence, overnight; percent of plate control window, DMSO zero; GFP/RFP ratio change, % at 20 µM; 360,000 tested, 0.061% active;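 active means GFP/RFP ratio change of at least 30% with cell ATP level not reduced by more than half and red fluorescence within 50% of control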; further: strong numbers were not always called active
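system = RFP-PRO-GFP reporter HT1080 cells | dosing = 20 µM single dose, 1% DMSO | timing = overnight cell settling, then overnight compound exposure, 37 °C, 5% CO2 | read-out basis = GFP/RFP fluorescence ratio | controls = DMSO and RFP-L50D-GFP cell wells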
eIF4H FP inh retest – further read-out of eIF4H FP inh, marked with its call; inhibition, %; compound at 20 µM; confirmation average;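 mean of two retest wells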
PABP polyA inh retest – also measured in PABP polyA inh; calls as there; inhibition, %; compound at 20 µM; confirmation repeats;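 mean of two retest wells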
MT1-MMP act inh RFP – recorded beside MT1-MMP act inh, whose call it bears; RFP signal change, %; measured here: RFP expression control read;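 0 = vehicle wells; hits needed this value within 50% of zero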
An asterisk follows results filed as active; i = inactive; . = not tested or not shown; + = active, no number; & = joins results of further samples.

SMILES	Env fusion inh	PABP polyA inh	eIF4H FP inh	CSC inhib	Yeast UUG start	Rce1 inhib	MT1-MMP act inh	MT1-MMP act inh RFP	others
CC(C)c1ccc(C2C(C#N)=C(N)N3C(=C2C#N)Sc2ccccc23)cc1 (stereo not given)	.	35	82	8	.	i	.	.	eIF4H FP inh retest=26;PABP polyA inh retest=35
C=CCc1ccc(OCC(O)CN2CCN(c3ccccc3)CC2)c(OC)c1 (stereo not given)	5	13	-11	-4	.	i	1	0
Cc1c(CCOC(=O)c2ccc(Cl)cc2Cl)sc[n+]1CC(=O)c1ccccc1	15	.	.	-10	.	.	-7	-1
Cc1coc2cc3oc(=O)c(CCC(=O)NCCCn4ccnc4)c(C)c3cc12	.	0	4	2	-15	i	-2	-1
CS(=O)(=O)N1CCN(c2ccc([N+](=O)[O-])c(NCCN3CCOCC3)c2)CC1	-18	4	-14	-9	-12	i	8	0
Cc1cc(NC(=O)COC(=O)Cn2[nH]c(=O)c3ccccc3c2=O)c([N+](=O)[O-])cc1C	-1	.	.	-13	.	.	3	5
Cc1ccc(CNC(=O)COC(=O)C2CC2)cc1	-22	.	.	-2	-14	.	1	5
COc1ccccc1CN(C)C[C@H]1OCc2cnnn2CCCC(=O)N([C@@H](C)CO)C[C@@H]1C	14	.	.	.	-6&2	.	6	4
O=C1NC(=S)N/C1=C/c1cccc([N+](=O)[O-])c1O	-5	16	-2	6	-9	i	20	8
CC(=O)Nc1ccccc1NC(=O)c1ccc(C)c(C)c1	-3	1	-3	-9	-10	i	4	-2
CC(C)(C)OC(=O)C1C(=O)CC(C)(O)C(C(=O)OC(C)(C)C)C1c1ccco1 (stereo not given)	-30	4	3	-7	8	i	-6	-4
CCOc1ccc(-c2nc(=S)[nH][nH]2)cc1	.	3	5	-10	.	i	12	12
O=C(CN1CCCCCC1)Nc1ccc(Cl)cn1	7	-1	4	25	-16	i	4	8
C=CCN(CC=C)c1cnn(-c2nc3ccccc3[nH]2)c(=O)c1Cl	-183	10	-12	8	-15	i	9	-4
CC(NC(=O)NCC1CCCO1)(C(F)(F)F)C(F)(F)F (stereo not given)	.	0	1	-10	-15	i	4	6
O=C(CN1C(=O)NC2(CCOc3ccccc32)C1=O)NCCc1ccccc1 (stereo not given)	-6	.	.	-13	-11	.	-5	1
Cc1cc(NC(=O)CSc2nnc(C(F)(F)F)n2C)no1	.	.	.	-14	-19	.	-4	4
COC(=O)c1sc(NC(=O)c2ccc(OC)cc2OC)nc1C	-414	.	.	.	-35	i	7	9
N#CC1=C(N)Oc2cc(Nc3ccccc3)ccc2C1c1ccncc1 (stereo not given)	.	-1	-8	54	.	i	-13	-10
Cc1c(/C=N/NC(N)=O)c2ccccn2c1C(=O)c1ccc(F)cc1	-21	6	14	-3	.	i	5	-4
CCC(=O)Nc1nnc(SCC(=O)c2ccc3c(c2)Cc2ccccc2-3)s1	.	2	-2	18	-8	i	12	8
COC(=O)c1cn(-c2ccccc2)nc1C(=O)OC	-13	5	-3	20	-20	i	-1	-2
COc1ccccc1CNC(=O)c1ccc(CS(=O)Cc2cccc(Cl)c2)o1 (stereo not given)	6	-1	-2	-20	5	i	1	-1
COc1ccc(N(C)S(=O)(=O)c2cccc(C(=O)OC(C(=O)Nc3cc(C)cc(C)c3)c3ccccc3)c2)cc1 (stereo not given)	-27	4	10	15	.	i	-4	-6
O=C(O)C(O)c1ccco1 (stereo not given)	.	7.9*	104*	.	-11	.	-2	2	eIF4H FP inh retest=74*;PABP polyA inh retest=72*
(cont.)
SMILES	Env fusion inh	PABP polyA inh	eIF4H FP inh	CSC inhib	Yeast UUG start	Rce1 inhib	MT1-MMP act inh	MT1-MMP act inh RFP	others
CCCCNC(=O)c1c[nH]c2ccc(S(=O)(=O)Nc3ccc(OCC)cc3)cc2c1=O	-12	14	2	12	-17	i	3	-2
COc1cccc(CN(C)C(=O)c2ccc(NS(=O)(=O)c3ccc(F)cc3)cc2)c1OC	-7	.	.	10	9	i	-6	-6
CC1(C(=O)c2ccccc2)C2c3c(ccc4ccccc34)OC(=O)C21C(=O)N1CCOCC1 (stereo not given)	.	-2	-10	-12	.	i	3	4
O=C(CSCc1c(Cl)cccc1Cl)NN1C(=O)c2ccccc2C1=O	18	6	4	1	19	i	6	-5
CCOc1ccc(C(=O)NCCC(=O)N2CCC3(CC2)NCCc2[nH]cnc23)cc1OCC	-8	.	.	-13	-16	i	0	-1
CC(C)N1CC2(CC(c3ccc(Cl)cc3Cl)=NO2)CN1C(=O)c1ccc(C(C)(C)C)cc1 (stereo not given)	25	.	.	.	17	.	-13	-27
CCc1nn(CC(=O)NCCCN2CCOCC2)c(=O)c2cc3c(OC)cccc3n12	-1	.	.	.	6	.	4	-2
CCSc1nnnn1-c1ccccc1	.	0	8	-13	-5	.	6	9
COc1cccc(CN2CC(O)=C(c3nc(-c4ccc(Cl)cc4)cs3)C2=N)c1	.	-16	-2	-4	-14	.	-1	4
Brc1cccc(-c2cnco2)c1	3	-1	-10	-3	-15	i	3	1
O=C(NCCc1ccccc1)c1n[nH]c2ccccc12	-67	7	-11	12	1	i	0	3
N#Cc1c(N)c(C(=O)c2ccc(Br)cc2)n2c1CCC2	.	15	8	8	-14	i	-1	0
Cc1ccc2nc(S(=O)(=O)O)[nH]c2c1	4	10	-5	-5	-4	i	4	8
COc1ccc(C(C#N)(CC(=O)O)c2cnccn2)cc1OC (stereo not given)	-6	.	.	-5	-3	i	3	3
COc1ccc(CCNC(=O)COC(=O)CCC(=O)c2cccs2)cc1OC	-17	.	.	-23	-13	.	2	5
Cc1ccc2c(CNCc3ccco3)cc(=O)oc2c1	-60	-8	-8	.	-10	i	-10	-3
O=C(CSc1n[nH]c(=O)n1-c1ccc2c(c1)OCCO2)Nc1ccccc1	8	-3	2	-6	-5	i	-2	2
CCn1c(Cc2ccc(OC)cc2)nnc1SCc1nc2ccccc2c(=O)[nH]1	7	1	-8	3	.	i	-3	0
CCN(Cc1ccc(OC)c(COC)c1)CC1CCCN(CCc2cccc(F)c2)C1 (stereo not given)	30	1	5	35	-16	i	0	1
CCCn1c(SCC(=O)Nc2ccccc2N2CCOCC2)nc2c1c(=O)n(C)c(=O)n2C	.	-8	-3	0	-9	i	-2	-1
CCN(CC)Cc1c(O)ccc2c(=O)c(-c3ccccc3OC)coc12	-4	1	11	-10	-30	+	-2	-1
CCSS(=O)(=O)c1cccc2cccnc12	-2	-14	-3	-2	-9	i	1	-1
COc1cc2cc(CN(CCO)S(=O)(=O)c3ccccc3)c(=O)[nH]c2cc1OC	-46	7	4	-9	0	i	6	6
COC(=O)COc1cccc(-n2cnnn2)c1	0	4	3	-2	-6	i	1	3
CCOC(=O)c1cc(NC(=O)C2C3CCC(O3)C2C(=O)O)cc(C(=O)OCC)c1 (stereo not given)	.	8	16	.	2	i	1	4

3 consecutive records from above, quoted:
SMILES	Env fusion inh	PABP polyA inh	eIF4H FP inh	CSC inhib	Yeast UUG start	Rce1 inhib	MT1-MMP act inh	MT1-MMP act inh RFP	others
COc1cc2cc(CN(CCO)S(=O)(=O)c3ccccc3)c(=O)[nH]c2cc1OC	-46	7	4	-9	0	i	6	6
COC(=O)COc1cccc(-n2cnnn2)c1	0	4	3	-2	-6	i	1	3
CCOC(=O)c1cc(NC(=O)C2C3CCC(O3)C2C(=O)O)cc(C(=O)OCC)c1 (stereo not given)	.	8	16	.	2	i	1	4

Next records:
SMILES	Env fusion inh	PABP polyA inh	eIF4H FP inh	CSC inhib	Yeast UUG start	Rce1 inhib	MT1-MMP act inh	MT1-MMP act inh RFP	others
C=CCN1CCN(C(CC(C)C)c2nnnn2CCOC)CC1 (stereo not given)	.	36	-3	-1	3	.	0	5
CCOC(=O)CNC(=O)CSc1nc(-c2ccc(C)cc2)ns1	-13	-11	-6	-4	.	i	2	-2
COc1cccc(C(=O)n2cnnc2N)c1OC	.	12	4	-8	.	i	8	6
CCOC(=O)C(NC(=O)Nc1ccc(O)cc1)(c1ccccc1)C(F)(F)F (stereo not given)	33	14	10	14	-15	i	-3	-2
Cc1cccn2c(CNCCc3ccco3)c(C(=O)N3CCOCC3)nc12	-8	-4	12	.	-4	i	-2	1
O=C(NNC(=O)c1cc([N+](=O)[O-])ccc1Cl)c1cccnc1	-6	-6	-12	7	-10	i	-3	4
COC(=O)CCCCCNC(=S)Nc1ccc2[nH]c(=O)[nH]c2c1	4	-4	-2	14	.	i	6	-1
CCCC(NC(=O)C(C)N1CCN(S(=O)(=O)c2ccccc2)CC1)c1ccccc1 (stereo not given)	.	.	.	-1	3	.	-4	-3

Grouped by structure: the entries above with a halogen.
SMILES	Env fusion inh	PABP polyA inh	eIF4H FP inh	CSC inhib	Yeast UUG start	Rce1 inhib	MT1-MMP act inh	MT1-MMP act inh RFP	others
Cc1c(CCOC(=O)c2ccc(Cl)cc2Cl)sc[n+]1CC(=O)c1ccccc1	15	.	.	-10	.	.	-7	-1
O=C(CN1CCCCCC1)Nc1ccc(Cl)cn1	7	-1	4	25	-16	i	4	8
C=CCN(CC=C)c1cnn(-c2nc3ccccc3[nH]2)c(=O)c1Cl	-183	10	-12	8	-15	i	9	-4
CC(NC(=O)NCC1CCCO1)(C(F)(F)F)C(F)(F)F (stereo not given)	.	0	1	-10	-15	i	4	6
Cc1cc(NC(=O)CSc2nnc(C(F)(F)F)n2C)no1	.	.	.	-14	-19	.	-4	4
Cc1c(/C=N/NC(N)=O)c2ccccn2c1C(=O)c1ccc(F)cc1	-21	6	14	-3	.	i	5	-4
COc1ccccc1CNC(=O)c1ccc(CS(=O)Cc2cccc(Cl)c2)o1 (stereo not given)	6	-1	-2	-20	5	i	1	-1
COc1cccc(CN(C)C(=O)c2ccc(NS(=O)(=O)c3ccc(F)cc3)cc2)c1OC	-7	.	.	10	9	i	-6	-6
O=C(CSCc1c(Cl)cccc1Cl)NN1C(=O)c2ccccc2C1=O	18	6	4	1	19	i	6	-5
CC(C)N1CC2(CC(c3ccc(Cl)cc3Cl)=NO2)CN1C(=O)c1ccc(C(C)(C)C)cc1 (stereo not given)	25	.	.	.	17	.	-13	-27
COc1cccc(CN2CC(O)=C(c3nc(-c4ccc(Cl)cc4)cs3)C2=N)c1	.	-16	-2	-4	-14	.	-1	4
Brc1cccc(-c2cnco2)c1	3	-1	-10	-3	-15	i	3	1
N#Cc1c(N)c(C(=O)c2ccc(Br)cc2)n2c1CCC2	.	15	8	8	-14	i	-1	0
CCN(Cc1ccc(OC)c(COC)c1)CC1CCCN(CCc2cccc(F)c2)C1 (stereo not given)	30	1	5	35	-16	i	0	1
CCOC(=O)C(NC(=O)Nc1ccc(O)cc1)(c1ccccc1)C(F)(F)F (stereo not given)	33	14	10	14	-15	i	-3	-2
O=C(NNC(=O)c1cc([N+](=O)[O-])ccc1Cl)c1cccnc1	-6	-6	-12	7	-10	i	-3	4
